High-throughput results as filed in PubChem BioAssay.
Sa RN4220 lethal – kills Staphylococcus aureus RN4220; S. aureus RN4220 growth, OD600, 16 h; inhibition, % (test concentration not listed); actives 0.33% (n = 330,000); AID 1259311;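 active means z-score of -3 or lower and OD600 up to 0.18 on both plates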;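 further: plate controls were untreated cells for no effect and reference antibiotic for full effect; stock transfer was 100 nL into about 80 µL; one replicate is shown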
Mtb hypoxia inh – Mtb hypoxia fluorescent reporter inhibition. fluorescence inhibition, % (concentration not given with the values). AID 1159583. actives 0.1% (n = 300,000). M. tuberculosis hypoxia-regulated fluorescent reporter, fluorescence;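 active means 35 to 45% if threefold the growth effect, above 45% if 1.5-fold the growth effect; inactive means the rest, general growth blockers included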;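 further: wells of about 50 µL received 100 nL stock; 0% = vehicle wells and 100% = reference inhibitor wells; whole bacteria with a GFP reporter of the hypoxia response; strong numbers were not always called active; many hits fall short of the cut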
Bead autofluor – flagged as autofluorescent in microsphere protease counterscreen; compound autofluorescence counterscreen, microsphere flow cytometry; stronger effect = higher value; fluorescence intensity (concentration not given with the values); actives 3.1% (n = 360,000); AID 624483;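 active means at least 3 SD above the mean of all compounds, about 16000 in these data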;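 further: 100 nL of 1 mM stock went into each well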
BJeLR viability – BJeLR cell viability loss | BJeLR (HRASV12) viability, CellTiter-Glo ATP luminescence, 48 h; reference of the scale not given here | inhibition, % (test concentration not listed) | actives 0.17% (n = 300,000);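 active means replicate mean above 50%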;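 further: 50 nL library stock added to about 25 µL; numbers are from one replicate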
ugtP null kill – growth inhibition of S. aureus ugtP deletion strain. actives 0.54% (n = 330,000). S. aureus RN4220 ugtP deletion, OD600 growth, 16 h; some inactives read as strong as hits. growth inhibition, % (no concentration beside the values). AID 1259309;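 active means z-score under -3 and OD600 up to 0.15 on both plates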;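 further: plate controls were untreated wells for no effect and antibiotic for full effect; wells of about 80 µL received 100 nL stock; the first replicate is given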
PrP 5UTR inh – suppresses PrP 5' UTR mRNA reporter expression. cell-based PrP 5' UTR mRNA reporter, plate reader. inhibition, % (no concentration beside the values). actives 0.35% (n = 340,000). AID 488862;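 active means every replicate at 50% or more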;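 further: 0 = median of the neutral control wells; tested in H4 reporter cells; numbers are from one replicate; inactives centre near -14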
Mtb hypoxia inh growth – second read-out of Mtb hypoxia inh, no call of its own (marks repeat the call); growth inhibition, %; measured here: M. tuberculosis growth (absorbance);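 0% = vehicle and 100% = reference antibiotic; read after six days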
* marks the source's active call; other numbers are inactive results; · = no result given; & = joins results of further samples.

SMILES	Sa RN4220 lethal	Mtb hypoxia inh	Mtb hypoxia inh growth	Bead autofluor	BJeLR viability	ugtP null kill	PrP 5UTR inh
CCc1nnc(NC(=O)c2ccc(S(=O)(=O)NCC(C)C)cc2)s1	4.7	2	2	8081	3	0	-31
CC(=O)N1N=C(c2ccccc2)CC1c1cn(Cc2ccccc2)c2ccccc12 (stereo not given)	-8.1	10	1	2739	-14	28	-11
C/C(=N\NC(=O)c1ccco1)c1ccc(-c2ccccc2)cc1	·	·	·	5398	-5	·	-55
CCOc1ccc(CC2(CCc3ccncc3)C(=O)NC(=O)NC2=O)cc1	1.3	12	0	3464	7	-4	-13
CNc1nc(OCC(F)(F)F)nc(N2CCOCC2)n1	1.4	·	·	2430	3	5	-19
Cc1cccc(N2C(=O)C3CCC(c4ccccc4)CC3C2=O)c1 (stereo not given)	11	-2	3	2390	15	5	-8
COc1ccc(OC)c(C2CC(=O)C(C)C(c3cc(OC)ccc3OC)N2)c1 (stereo not given)	1.5	4	2	3153	3	4	-17
COCCn1nc2cc(C(=O)NCc3cc(C(F)(F)F)cc(C(F)(F)F)c3)ccc2c1OC	0.5	7	11	3836	6	3	-13
CCOc1ccc(CCNC(=O)CN2C(=O)NC(CCSC)C2=O)cc1OCC (stereo not given)	7.2	3	17	5032	6	3	-30
COc1ccc(Br)c(C(=O)OCC(=O)NC(=O)NC2CCCC2)c1	4.1	7	-2	6562	·	-4	-32
COc1ccccc1C(=O)NC(=O)COC(=O)c1nc2nc(C)cc(C)n2n1	0.6	-2	4	4733	-8	-1	-21
COc1ccccc1-n1c(N)c(C(=O)NCC2CCCO2)c2nc3ccccc3nc21 (stereo not given)	-1.4	-4	-2	4736	3	1	-35
Cc1cc(C)cc(N=c2c([N+](=O)[O-])nn(-c3cccc(Cl)c3)n2O)c1	88*	16	8	22853*	4	84	-26
Cc1ccc(-n2c(SCc3cc(=O)n4ccsc4n3)nnc2-c2cccnc2)c(C)c1	-4.0	-5	-8	9079	-5	-6	-8
CC1CCc2c(sc3nc(CSc4nnnn4C)[nH]c(=O)c23)C1 (stereo not given)	1.3	14	8	4388	3	-2	-23
Cc1ccc(-c2[nH]c3ccccc3c2SCCNC(=O)c2ccc(S(=O)(=O)N3CCOCC3)cc2)cc1	5.2	6	4	6594	-24	-5	-19
Cc1cc(C)n(CC(=O)N/N=C/c2ccc3c(c2)OCO3)n1	·	·	·	2176	-3	·	-29
CN1CCCN(C(=O)Cc2c(Cl)cccc2Cl)c2nc3ccccc3nc21	2.3	9	11	3214	3	4	3
O=C(c1cccc(C(F)(F)F)c1)C1CCCN(C(=O)CCCn2cncn2)C1 (stereo not given)	1.5	4	3	2616	-11	2	-4
COc1ccc(-c2nn(C)c3sc(C(=O)NCCN(C)C)cc23)cc1OC	·	·	·	4131	-4	·	-25
Cc1ccc2[nH]c3c(=O)n(CC(=O)NCCCN(C)Cc4ccccc4)ncc3c2c1	-0.5	2	-6	5633	5	-1	-19
CC1CN(C(=O)Nc2ccc(F)cc2)C2(CCCCCC2)O1 (stereo not given)	-0.5	14	5	2691	8	6	-5
CC(C)NC(=O)CSc1nnc2sc3ccccc3n12	1.6	4	8	10360	-1	-1	-34
CCN1CCN=C1Nc1ccccc1	7.5	17	6	4003	·	11	8
CC12CCCCC1(O)[N+](=O)C1=C(CCCC1)N2[O-] (stereo not given)	1.0	·	·	4366	4	0	-20

The final three entries of the section before come first, to join the parts.
SMILES	Sa RN4220 lethal	Mtb hypoxia inh	Mtb hypoxia inh growth	Bead autofluor	BJeLR viability	ugtP null kill	PrP 5UTR inh
CC(C)NC(=O)CSc1nnc2sc3ccccc3n12	1.6	4	8	10360	-1	-1	-34
CCN1CCN=C1Nc1ccccc1	7.5	17	6	4003	·	11	8
CC12CCCCC1(O)[N+](=O)C1=C(CCCC1)N2[O-] (stereo not given)	1.0	·	·	4366	4	0	-20
O=C(NCC(c1cccs1)N1CCOCC1)c1ccc(Cl)c([N+](=O)[O-])c1 (stereo not given)	-1.5	-7	0	7316	2	1	3
CCOc1ccccc1C(=O)NCC(=O)OCC(=O)N1C(C)CCCC1C (stereo not given)	1.4	0	8	4591	-2	1	0
CCOC(=O)CNc1c(-c2ccc(OC)cc2)nc2ccc(Cl)cn12	7.4	18	9	12808	11	1	-71
O=C(NCCN1CCOCC1)N1c2ccccc2Sc2ccccc21	1.0	·	·	4709	-1	-2	-5
O=C(CN1CC=C(c2ccccc2)CC1)NC(=O)NCc1ccco1	-4.0	4	5	9530	-1	15	-22
COC(=O)C1=C(C)NC(=S)NC1c1ccc(OC(=O)c2ccco2)cc1 (stereo not given)	3.4	-5	9	3666	3	-63	-1
CC(NC(=S)Nc1ccccc1)C(c1cccs1)N1CCOCC1 (stereo not given)	3.4	7	-9	4493	7	13	-8
O=C(O)C1C2OC3C(OC(=O)C31)C2Br (stereo not given)	4.6	13	7	3500	·	5	-8
Cc1cccc(CN2CCc3c([nH]c4ccccc34)C2C(C)(C)C)n1 (stereo not given)	1.9	-6	8	4581	-5	-5	-42
CCCCCCCCCNC(=O)[C@H](NC(=O)COc1ccccc1)[C@@H]1NC(C(=O)OC)C(C)(C)S1 (stereo not given in full)	·	·	·	2930	-7	·	-6
COC(=O)CSc1nnc(CCc2ccccc2)n1C	6.1	6	14	4067	-3	14	-15
O=C(Nc1nnc(C2CCCC2)s1)C1CCN(S(=O)(=O)c2ccc(Cl)cc2)CC1	-1.6	2	14	9489	1	-1	-2
CC(=O)OCCNC(=O)Cn1cnc2c1c(=O)n(C)c(=O)n2C	2.0	4	4	3376	-1	1	-13
O=C(N/N=C/c1ccsc1)c1ccccn1	·	·	·	3369	2	·	-40
CSc1ccc(CN(C)C(=O)CSCC(=O)Nc2ccc(C)cc2)cc1	-0.5	-10	0	6122	7	-2	-19
O=C(COC(=O)c1cc(Br)ccc1O)c1ccc(F)cc1	9.5	17	8	4035	·	1	-6
COc1ccc(C2/C(=C(/O)c3ccc(F)cc3)C(=O)C(=O)N2c2ccccn2)cc1OC (stereo not given)	·	·	·	3736	-5	·	-13
Cc1ccccc1C1CCCN(C(=O)c2cc(COc3c(F)cccc3F)on2)C1 (stereo not given)	0.9	1	12	4528	-2	17	-33
CC(C)(C)C1CCc2c(sc(N)c2C(N)=O)C1 (stereo not given)	·	·	·	4728	2	·	-12
CCC(=O)Nc1ccc(S(=O)(=O)Nc2cc(C)on2)cc1	-0.6	10	19	10473	-7	-9	-40
CC1=C(C(=O)OC(C)C)C2(O)C(=O)c3ccccc3C2(O)N1 (stereo not given)	0.2	·	·	3660	1	9	0
O=C(CSc1nc(-c2ccc(Cl)cc2)cs1)Nc1cccc([N+](=O)[O-])c1	-7.8	-6	-1	2578	-7	-27	-5
Cc1ccc2oc(-c3ccccc3C(=O)O)cc(=O)c2c1	0.4	·	·	5076	-19	2	-16
CC(C)(O)CC[C@H](OC(=O)c1ccccc1)[C@](C)(O)[C@H]1CC[C@@]2(O)C3=CC(=O)[C@@H]4C[C@@H](O)[C@H](O)C[C@]4(C)C3CC[C@]12C (stereo not given in full)	5.0	-7	1	4280	7	6	-15
COCCNC(=O)c1cc(-c2ccccc2OC)on1	5.1	7	9	6023	5	5	-31

Grouped by structure, those above with a COOH group
SMILES	Sa RN4220 lethal	Mtb hypoxia inh	Mtb hypoxia inh growth	Bead autofluor	BJeLR viability	ugtP null kill	PrP 5UTR inh
O=C(O)C1C2OC3C(OC(=O)C31)C2Br (stereo not given)	4.6	13	7	3500	·	5	-8
Cc1ccc2oc(-c3ccccc3C(=O)O)cc(=O)c2c1	0.4	·	·	5076	-19	2	-16

Compounds listed so far that have a Cl atom:
SMILES	Sa RN4220 lethal	Mtb hypoxia inh	Mtb hypoxia inh growth	Bead autofluor	BJeLR viability	ugtP null kill	PrP 5UTR inh
Cc1cc(C)cc(N=c2c([N+](=O)[O-])nn(-c3cccc(Cl)c3)n2O)c1	88*	16	8	22853*	4	84	-26
CN1CCCN(C(=O)Cc2c(Cl)cccc2Cl)c2nc3ccccc3nc21	2.3	9	11	3214	3	4	3
O=C(NCC(c1cccs1)N1CCOCC1)c1ccc(Cl)c([N+](=O)[O-])c1 (stereo not given)	-1.5	-7	0	7316	2	1	3
CCOC(=O)CNc1c(-c2ccc(OC)cc2)nc2ccc(Cl)cn12	7.4	18	9	12808	11	1	-71
O=C(Nc1nnc(C2CCCC2)s1)C1CCN(S(=O)(=O)c2ccc(Cl)cc2)CC1	-1.6	2	14	9489	1	-1	-2
O=C(CSc1nc(-c2ccc(Cl)cc2)cs1)Nc1cccc([N+](=O)[O-])c1	-7.8	-6	-1	2578	-7	-27	-5

Further results follow:
SMILES	Sa RN4220 lethal	Mtb hypoxia inh	Mtb hypoxia inh growth	Bead autofluor	BJeLR viability	ugtP null kill	PrP 5UTR inh
Cc1cc(OCC(=O)N(C)Cc2ccccc2)ccc1Cl	8.2	16	9	·	3	3	-32
CCCCNC(=S)NNC(=O)c1c(Cl)c(C)nn1C	8.1	3	3	2116	0	0	-13
CCCCC(CC)CNC(=O)Cn1c(=S)[nH]c2ncccc2c1=O (stereo not given)	9.7	-10	3	·	-4	5	·
O=C(CC(c1ccccc1)C1CCCCC1=O)c1ccco1 (stereo not given)	5.1	11	8	3229	11	1	-5
CCN(CC)c1ccc(/C=C(\C#N)C(=O)NCc2ccccc2)cc1	·	·	·	9721	-1	·	-20
COc1ccccc1C(=O)OCCNC(=O)Cn1cnc2c1c(=O)n(C)c(=O)n2C	4.9	7	5	5049	7	14	-12
COc1ccccc1NC(=S)N(Cc1ccccn1)Cc1ccccc1Cl	3.1	2	1	3776	-4	11	-49
COc1ccc(/C=C2\SC(=S)N(CCCC(=O)Nc3cc(C)on3)C2=O)cc1OC	4.3	2	-4	6076	0	5	-14
CCOC(=O)NC(=O)C(=CNNc1ncc(C(F)(F)F)cc1Cl)C(=O)NC(=O)OCC	2.3	10	8	3407	3	1	-19
O=c1c2ccccc2cnn1Cc1n[nH]c(=S)n1-c1ccc(Cl)cc1	7.4	12	6	2082	-1	9	-15
O=c1c2ccccc2sn1-c1nccs1	-3.3	-2	1	4744	5	-7	-32
Cc1cccc(N2CC(C(=O)Nc3ccc4c(c3)OCCO4)CC2=O)c1C (stereo not given)	-4.0	7	2	3198	-10	-1	-5
CCOc1cc(-c2noc(-c3ccncc3)n2)cc(Br)c1OC	4.9	-2	7	5754	3	1	-25
O=C(Nc1ccc(F)c(Cl)c1)C1CCN(S(=O)(=O)c2cccnc2)CC1	-1.0	6	5	5956	-13	5	-3
O=C(Nc1ccc2[nH]c(=O)[nH]c2c1)c1c(F)c(F)c(F)c(F)c1F	6.2	2	12	4114	-4	8	-3
COc1ccc(OC2CCN(S(=O)(=O)c3ccc(OC)cc3)CC2)cc1	-5.3	1	-3	3641	-2	25	-24
COc1cc(C=NNC(=O)/C(=C\c2ccc([N+](=O)[O-])cc2)NC(=O)c2ccccc2)cc(OC)c1O	-3.7	3	1	·	·	-11	·
COc1ccc(NC(C)=O)cc1NC(=O)CSc1nnc(-c2ccncc2)n1C	1.2	4	9	21036*	-11	-1	-4
O=C(N1CCCCC1)C12CC3CC(CC(C3)C1)C2	17	6	8	3184	4	3	-3
O=C(Nc1ncc([N+](=O)[O-])s1)c1cccs1	80&72	16&25	30&27	5740&3972	18&27	82&71	-109&4
Cn1nnnc1SCC(=O)N1CCc2ccccc2C1	8.0	·	·	4607	·	5	-15
Cc1ccc(C2(O)CC(C)N(C)CC2C)cc1 (stereo not given)	-2.9	·	·	4885	-7	-4	-15
COc1ccc(CC(=O)Nc2cc(S(=O)(=O)N3CCOCC3)ccc2N2CCCC2)cc1OC	2.7	7	10	3116	·	2	-38
Cc1nnc(SCc2ccc(Cl)cc2Cl)[nH]c1=O	17	14	10	4593	-10	-18	-29
CN(CC(=O)Nc1ccccc1Cl)C(=O)CSc1nnc(-c2ccco2)n1C	-0.1	3	6	3984	·	9	-17
CCOc1ccc(-c2c(C(=O)N/N=C(\C)c3cccnc3)nnn2-c2nonc2N)cc1	·	·	·	4110	-3	·	8
